Source: PubChem BioAssay (ICCB-Longwood Screening Facility, Harvard Medical School)
E coli growth: E. coli growth inhibition, primary screen, OD600 | Escherichia coli growth, 23 h; hits give low values | OD600 absorbance (no concentration beside the values) | 330,000 compounds, 0.21% hits | AID 1053175, 2014;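 active means OD600 absorbance below the run mean of sample wells minus 3.6 SD, in any replicate, cut at about 0.56 in these data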;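 further: stock transfer was 300 nL into about 60 µL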
UCH37 DUB inh: inhibitors of human UCH37 deubiquitinase, primary screen, biochemical, Ub-AMC cleavage, fluorescence. Ubiquitin carboxyl-terminal hydrolase isozyme L5 (Homo sapiens), Q9Y5K5. purified proteasome/UCH37. inhibition, % (test concentration not listed). 330,000 compounds, 0.33% hits;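 active means mean of two replicates above 20%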;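 further: 0% = compound-free wells with enzyme and 100% = wells lacking proteasome; stock transfer was 100 nL into about 20 µL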
Target sequence (Q9Y5K5 whole entry, looked up): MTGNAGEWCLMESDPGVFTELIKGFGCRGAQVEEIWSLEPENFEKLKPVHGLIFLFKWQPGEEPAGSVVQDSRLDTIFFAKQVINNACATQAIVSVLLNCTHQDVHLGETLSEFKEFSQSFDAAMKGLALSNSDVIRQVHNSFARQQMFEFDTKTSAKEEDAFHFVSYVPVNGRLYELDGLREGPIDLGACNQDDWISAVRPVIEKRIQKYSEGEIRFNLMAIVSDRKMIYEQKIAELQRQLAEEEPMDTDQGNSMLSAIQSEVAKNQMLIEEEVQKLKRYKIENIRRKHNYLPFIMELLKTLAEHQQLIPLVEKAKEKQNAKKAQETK
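Material: Human UCH37 enzyme supplied as purified proteasome complex | Schedule: 30 min compound-proteasome preincubation then 25 min substrate reaction, room temperature | Detection: AMC fluorescence from Ub-AMC cleavage, excitation 355 nm, emission 460 nm | Benchmarks: Wells without proteasome as full block, compound-free enzyme plus substrate as uninhibited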
The depositor's hits bear a star.

The opening 10 records, to show the layout:
What do the screens show for `CC(=O)Nc1cccc(C(C)=NNC(=O)c2ccc(Cl)cc2Cl)c1`?
E coli growth: 0.61; UCH37 DUB inh: 2.1

Results for NC(=NN=Cc1ccc([N+](=O)[O-])cc1)c1nonc1N ?
E coli growth: 0.74; UCH37 DUB inh: 2.1

Results for COc1cc(O)ccc1C=NNC(=O)c1ccc([N+](=O)[O-])cc1 ?
E coli growth: 0.7; UCH37 DUB inh: 5.3

What do the screens show for `Cc1ccc(-c2nnc(SCC(=O)NN=Cc3ccc(C)s3)n2-c2ccc(C)cc2)cc1`?
E coli growth: 0.73; UCH37 DUB inh: -0.6

What do the screens show for `Cc1ccc(-c2c(C(=O)NN=CC3CC=CCC3)nnn2-c2nonc2N)cc1` (stereo unspecified)?
E coli growth: 0.69; UCH37 DUB inh: 2.4

How did Cc1ccccc1N(CC(=O)NN=Cc1ccc(N(C)C)cc1)C(=O)c1ccccc1 do in these assays?
E coli growth: 0.71; UCH37 DUB inh: -71

How did COc1ccccc1C=NNc1nncc2ccccc12 do in these assays?
E coli growth: 0.7; UCH37 DUB inh: 5.7

What do the screens show for `C#CCn1cc(C=NNC(=O)COc2cccc3cccnc23)c2ccccc21`?
E coli growth: 0.7; UCH37 DUB inh: 2.0

How did Cc1ccc(OCC(=O)NN=C/C=C/c2ccco2)c(Br)c1 do in these assays?
E coli growth: 0.67; UCH37 DUB inh: -1.4

Results for CCOC(=O)NN=Cc1cn(Cc2ccc(F)cc2)c2ccccc12 ?
E coli growth: 0.71; UCH37 DUB inh: 6.7

The whole of this part, from the start:
What do the screens show for `CC(=O)Nc1cccc(C(C)=NNC(=O)c2ccc(Cl)cc2Cl)c1`?
E coli growth: 0.61; UCH37 DUB inh: 2.1

Results for NC(=NN=Cc1ccc([N+](=O)[O-])cc1)c1nonc1N ?
E coli growth: 0.74; UCH37 DUB inh: 2.1

Results for COc1cc(O)ccc1C=NNC(=O)c1ccc([N+](=O)[O-])cc1 ?
E coli growth: 0.7; UCH37 DUB inh: 5.3

What do the screens show for `Cc1ccc(-c2nnc(SCC(=O)NN=Cc3ccc(C)s3)n2-c2ccc(C)cc2)cc1`?
E coli growth: 0.73; UCH37 DUB inh: -0.6

What do the screens show for `Cc1ccc(-c2c(C(=O)NN=CC3CC=CCC3)nnn2-c2nonc2N)cc1` (stereo unspecified)?
E coli growth: 0.69; UCH37 DUB inh: 2.4

How did Cc1ccccc1N(CC(=O)NN=Cc1ccc(N(C)C)cc1)C(=O)c1ccccc1 do in these assays?
E coli growth: 0.71; UCH37 DUB inh: -71

How did COc1ccccc1C=NNc1nncc2ccccc12 do in these assays?
E coli growth: 0.7; UCH37 DUB inh: 5.7

What do the screens show for `C#CCn1cc(C=NNC(=O)COc2cccc3cccnc23)c2ccccc21`?
E coli growth: 0.7; UCH37 DUB inh: 2.0

How did Cc1ccc(OCC(=O)NN=C/C=C/c2ccco2)c(Br)c1 do in these assays?
E coli growth: 0.67; UCH37 DUB inh: -1.4

Results for CCOC(=O)NN=Cc1cn(Cc2ccc(F)cc2)c2ccccc12 ?
E coli growth: 0.71; UCH37 DUB inh: 6.7

What do the screens show for `CCOc1ccc(-c2c(C(=O)NN=Cc3ccc(C)o3)nnn2-c2nonc2N)cc1`?
E coli growth: 0.67; UCH37 DUB inh: -144

Results for CCN(CC)C(=O)C(=O)NN=Cc1ccc(C(=O)O)cc1 ?
E coli growth: 0.62; UCH37 DUB inh: 0.9

How did COc1cc(C=NNc2cccc(C)c2)cc(Br)c1O do in these assays?
E coli growth: 0.71; UCH37 DUB inh: -7.0

How did CCN(CC)C(=O)C(=O)NN=Cc1ccc(C(=O)OC)cc1 do in these assays?
E coli growth: 0.69; UCH37 DUB inh: 1.6

What do the screens show for `Cn1c(=NN=Cc2ccc(Cl)c([N+](=O)[O-])c2)sc2ccccc21`?
E coli growth: 0.76; UCH37 DUB inh: 8.4

Results for Cc1nc2ccc(C(=O)NN=Cc3cc([N+](=O)[O-])ccc3O)cc2[nH]1 ?
E coli growth: 0.66; UCH37 DUB inh: 0.9

What do the screens show for `C=CCOc1ccc(C=NNC(=O)C(=O)N2CCCCCC2)cc1OC`?
E coli growth: 0.68; UCH37 DUB inh: 3.0

Results for Cc1ccc2oc(N=C(N)NC(=O)C3CC3)nc2c1 ?
E coli growth: 0.65; UCH37 DUB inh: 2.7

What do the screens show for `O=C(O)COc1ccccc1C=NNC(=O)CN1CCN(Cc2ccccc2Cl)CC1`?
E coli growth: 0.66; UCH37 DUB inh: 2.3

Results for O=C(NN=C/C=C/c1ccccc1)C1CC1c1ccccc1 (stereo unspecified) ?
E coli growth: 0.67; UCH37 DUB inh: 4.8

Results for CC(=O)Nc1ccc(C=NNc2nc3ccccc3[nH]2)cc1 ?
E coli growth: 0.67; UCH37 DUB inh: 0.0

How did COc1ccc(C=NNC(=O)CNC(=O)C2COc3ccccc3O2)cc1OC (stereo unspecified) do in these assays?
E coli growth: 0.67; UCH37 DUB inh: 1.7

Results for CC(=NNC(=O)c1cccc([N+](=O)[O-])c1)c1cccc(NC(=O)C2CC2)c1 ?
E coli growth: 0.7; UCH37 DUB inh: 4.0

How did CC(=O)NN=C(C)CCc1ccccc1 do in these assays?
E coli growth: 0.7; UCH37 DUB inh: 2.8

What do the screens show for `CC(C)OC(=NS(=O)(=O)c1ccc(Cl)cc1)c1ccccc1`?
E coli growth: 0.66; UCH37 DUB inh: 1.4

How did O=C(CNC(=O)c1ccco1)NN=Cc1ccccc1[N+](=O)[O-] do in these assays?
E coli growth: 0.72; UCH37 DUB inh: 4.7

What do the screens show for `CC(=NNc1nc(C(=O)O)cs1)c1ccccc1`?
E coli growth: 0.67; UCH37 DUB inh: 7.3

Results for Cc1ccsc1C=NN1CCN(Cc2ccccc2)CC1 ?
E coli growth: 0.67; UCH37 DUB inh: -0.3

Results for COc1ccc(C(=O)NN=Cc2ccc(OC(=O)c3ccccc3)cc2)cc1 ?
E coli growth: 0.69; UCH37 DUB inh: -2.5

What do the screens show for `CCOc1cc(C=NNC(=O)c2nn(C)cc2Br)ccc1OCc1ccccc1Cl`?
E coli growth: 0.67; UCH37 DUB inh: -1.0

How did Cc1ccc(CON=CC2=C(Cl)c3ccccc3CC2)cc1 do in these assays?
E coli growth: 0.75; UCH37 DUB inh: 3.0

How did Cc1cc(Br)c(OCc2ccc(C(=O)NN=Cc3ccc[nH]3)cc2)c(Br)c1 do in these assays?
E coli growth: 0.65; UCH37 DUB inh: -30

How did Cc1ccc(C(=O)Nc2ccc(C(=O)NN=Cc3c[nH]c4ccccc34)cc2)cc1 do in these assays?
E coli growth: 0.66; UCH37 DUB inh: -94

How did Cc1cc(-c2n[nH]c(=S)n2N=Cc2cccc([N+](=O)[O-])c2)n[nH]1 do in these assays?
E coli growth: 0.66; UCH37 DUB inh: 1.2

Results for Fc1ccccc1C=NNc1ncnc2ccccc12 ?
E coli growth: 0.7; UCH37 DUB inh: 13

Results for CC(=NNC(=O)c1cc(C)oc1C)c1ccc(C)c([N+](=O)[O-])c1 ?
E coli growth: 0.71; UCH37 DUB inh: 3.2

How did Cc1cccc(C=NNc2cn[nH]c(=O)c2Cl)c1 do in these assays?
E coli growth: 0.72; UCH37 DUB inh: 9.4

Results for CC(=NNc1ccc2nncn2n1)c1ccco1 ?
E coli growth: 0.61; UCH37 DUB inh: 11

How did Cc1occc1C(=O)NN=CC1=C(N2CCOCC2)/C(=C\c2ccc(Cl)cc2Cl)CC1 do in these assays?
E coli growth: 0.73; UCH37 DUB inh: -49

Results for COc1cc(C=NNc2ccc(C(F)(F)F)cn2)cc(OC)c1O ?
E coli growth: 0.66; UCH37 DUB inh: 6.3

How did CC(=NNC(=O)C1(C)CC1(Br)Br)c1ccc(C)cc1C (stereo unspecified) do in these assays?
E coli growth: 0.71; UCH37 DUB inh: 2.1

Results for CN(C)c1ccc(C=c2sc3n(c2=O)CCCN=3)cc1 ?
E coli growth: 0.7; UCH37 DUB inh: 6.7

How did COc1ccc(/C=C/C(=O)Oc2cccc(C=NNC(=O)Cc3ccc(Br)cc3)c2)cc1 do in these assays?
E coli growth: 0.73; UCH37 DUB inh: 3.2

What do the screens show for `CC(=NOCC(=O)O)c1ccc(Cl)cc1`?
E coli growth: 0.64; UCH37 DUB inh: 3.3

Results for O=S1(=O)CCC(=NO)c2ccccc21 ?
E coli growth: 0.74; UCH37 DUB inh: 2.3

How did C/C(C=NN1CCN(c2ccc(Cl)cc2)CC1)=C\c1ccccc1 do in these assays?
E coli growth: 0.71; UCH37 DUB inh: 0.9

Results for Cc1nn(-c2ccccc2)cc1C=NNS(=O)(=O)c1ccccc1 ?
E coli growth: 0.65; UCH37 DUB inh: 4.5

Results for O=C(NN=Cc1c(F)c(F)c(F)c(F)c1F)c1ccc(Cn2cc(Br)cn2)o1 ?
E coli growth: 0.67; UCH37 DUB inh: 5.0

How did Cc1nccc(-c2cccc(NN=C(C#N)C(=O)c3ccccc3)c2)n1 do in these assays?
E coli growth: 0.63; UCH37 DUB inh: 11

How did Cc1csc(NN=Cc2ccc([N+](=O)[O-])cc2)n1 do in these assays?
E coli growth: 0.7; UCH37 DUB inh: 3.0

What do the screens show for `Cc1ccc(S(=O)(=O)N=CN(C)C)cc1`?
E coli growth: 0.64; UCH37 DUB inh: 0.0

What do the screens show for `Cc1ccc(C(=O)NN=C2SCC(=O)N2c2cc(C)ccc2C)cc1`?
E coli growth: 0.74; UCH37 DUB inh: 3.2

How did O=C(CC(=O)NC1CCCCC1)NN=Cc1ccccc1F do in these assays?
E coli growth: 0.68; UCH37 DUB inh: -0.5

Results for COc1cc(NC(=O)CC(C)=NNC(=O)C(OC)c2ccccc2)c(OC)cc1Cl (stereo unspecified) ?
E coli growth: 0.66; UCH37 DUB inh: 0.9

How did CC(=NOC(=O)c1ccccc1)c1oc(C)nc1C do in these assays?
E coli growth: 0.62; UCH37 DUB inh: 2.6

Results for Cc1ccc(C(=O)NN=Cc2ccc(-c3ccc([N+](=O)[O-])cc3)o2)cn1 ?
E coli growth: 0.69; UCH37 DUB inh: 12

How did CN(O)C=NC(=S)Nc1ccc(Cl)cc1Cl do in these assays?
E coli growth: 0.66; UCH37 DUB inh: 3.1

How did COc1cc([N+](=O)[O-])cc(C=NNC(=O)Cn2nc(C)cc2C)c1O do in these assays?
E coli growth: 0.69; UCH37 DUB inh: 14

How did CC(C)(C)OC(=O)NN=Cc1ccc(OC(=O)c2cccs2)cc1 do in these assays?
E coli growth: 0.68; UCH37 DUB inh: -3.0

How did CCN(CC)c1ccc(C=NN=C(c2ccccc2)c2ccccc2)c(O)c1 do in these assays?
E coli growth: 0.75; UCH37 DUB inh: 6.7

How did CC(=NNC(=O)c1ccccn1)C12CC3CC(CC(C3)C1)C2 do in these assays?
E coli growth: 0.65; UCH37 DUB inh: 0.0

What do the screens show for `O=C(CN1CCOCC1)NN=Cc1ccc(-c2ccc(Br)cc2)o1`?
E coli growth: 0.66; UCH37 DUB inh: -5.8

How did COc1ccc(C=NNC(=O)c2ccccc2O)cc1Cn1cc(Cl)cn1 do in these assays?
E coli growth: 0.79; UCH37 DUB inh: -50

What do the screens show for `CC(=NNc1nc(C)c(C)s1)c1ccc([N+](=O)[O-])cc1`?
E coli growth: 0.65; UCH37 DUB inh: 4.8

How did CCn1c2ccccc2c2cc(C=NNC(=O)c3ccccc3)ccc21 do in these assays?
E coli growth: 0.7; UCH37 DUB inh: -168

Results for O=C(NN=Cc1ccc(Cl)c([N+](=O)[O-])c1)c1cc(-c2ccccc2)nc2ccccc12 ?
E coli growth: 0.7; UCH37 DUB inh: 4.0

Results for CCOc1cc(C=NNC(=O)C(=O)NN=Cc2ccc(O)c(OCC)c2)ccc1O ?
E coli growth: 0.63; UCH37 DUB inh: -13

What do the screens show for `O=C(NN=Cc1ccco1)c1ccc(NC(=O)C2CC2)cc1`?
E coli growth: 0.69; UCH37 DUB inh: 7.3

What do the screens show for `Cn1c(C=NNc2nc3ccccc3[nH]2)nc2ccccc21`?
E coli growth: 0.63; UCH37 DUB inh: 1.4

How did COc1cc(C=NNc2ccc([N+](=O)[O-])cn2)cc(OC)c1O do in these assays?
E coli growth: 0.7; UCH37 DUB inh: 7.1

Results for Cc1ccc(C=NN2CCN(C3c4ccccc4-c4ccccc43)CC2)o1 ?
E coli growth: 0.66; UCH37 DUB inh: 3.9

Results for COc1ccc(NC(=S)NN=Cc2ccc(F)c(F)c2)cc1 ?
E coli growth: 0.68; UCH37 DUB inh: 1.6

How did COCCCNC(=O)c1c(N)n(N=Cc2ccccn2)c2nc3ccccc3nc12 do in these assays?
E coli growth: 0.77; UCH37 DUB inh: -8.0

Results for COc1ccc(C=NNC(=O)CN(C)C(=O)OCc2ccccc2)cc1OC ?
E coli growth: 0.63; UCH37 DUB inh: 1.7

How did O=[N+]([O-])c1ccc(NN=Cc2c[nH]c3ccccc23)cc1 do in these assays?
E coli growth: 0.76; UCH37 DUB inh: 8.6

How did Cc1ccc2cc(C=NNC(=O)c3ccccc3O)c(Cl)nc2c1 do in these assays?
E coli growth: 0.72; UCH37 DUB inh: -5.5

How did COc1cccc(C(=O)ON=Cc2ccc(Sc3ccc(C)cc3)nc2)c1 do in these assays?
E coli growth: 0.77; UCH37 DUB inh: -9.1

What do the screens show for `O=C(C[n+]1cccc(C(=O)NN=Cc2ccc(Br)cc2)c1)c1ccccc1`?
E coli growth: 0.67; UCH37 DUB inh: 8.4

Results for O=C(CNC(=O)c1cccc(F)c1)NN=Cc1ccc(O)c([N+](=O)[O-])c1 ?
E coli growth: 0.71; UCH37 DUB inh: 17

How did CCOc1cccc(C=NNC(=O)c2cc(C3CC3)[nH]n2)c1O do in these assays?
E coli growth: 0.68; UCH37 DUB inh: 0.9

Some of the compounds tested, so the mix of outcomes need not match the whole.
